RecA intein inh – Mtb RecA intein splicing inhibitors, primary screen, biochemical, fluorescence, HTS. Protein RecA (Mycobacterium tuberculosis (strain ATCC 25618 / H37Rv)), P9WHJ3. cell-free RecA intein splicing. inhibition, %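 (about 9 µM by stock and volumes)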. hit rate 0.75% among 290,000; in the data active means inhibition above about 30%; inconclusive means no clear call, values can overlap the other calls;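 further: 0% = vehicle wells and 100% = reference inhibitor control wells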
Target sequence (P9WHJ3 whole entry, looked up): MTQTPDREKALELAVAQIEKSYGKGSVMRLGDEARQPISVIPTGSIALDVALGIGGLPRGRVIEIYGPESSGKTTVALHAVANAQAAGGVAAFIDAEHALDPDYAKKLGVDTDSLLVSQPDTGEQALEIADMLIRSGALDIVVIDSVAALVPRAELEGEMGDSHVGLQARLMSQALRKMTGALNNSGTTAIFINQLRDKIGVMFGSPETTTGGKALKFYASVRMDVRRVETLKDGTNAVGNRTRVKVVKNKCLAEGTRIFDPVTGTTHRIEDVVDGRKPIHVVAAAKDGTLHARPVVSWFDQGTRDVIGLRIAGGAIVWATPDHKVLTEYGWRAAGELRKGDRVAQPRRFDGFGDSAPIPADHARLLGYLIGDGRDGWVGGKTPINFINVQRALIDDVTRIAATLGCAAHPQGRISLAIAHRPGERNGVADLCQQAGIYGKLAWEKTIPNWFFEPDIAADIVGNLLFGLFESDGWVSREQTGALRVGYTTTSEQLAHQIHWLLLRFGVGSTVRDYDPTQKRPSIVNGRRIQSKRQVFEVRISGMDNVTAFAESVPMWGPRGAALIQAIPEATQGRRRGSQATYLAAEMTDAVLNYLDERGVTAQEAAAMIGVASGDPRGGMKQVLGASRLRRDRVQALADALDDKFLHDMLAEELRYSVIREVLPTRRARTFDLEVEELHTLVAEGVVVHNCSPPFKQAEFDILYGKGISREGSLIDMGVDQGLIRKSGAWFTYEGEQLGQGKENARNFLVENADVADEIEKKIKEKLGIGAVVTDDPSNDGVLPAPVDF
YopH inh – YopH tyrosine phosphatase inhibitors, primary screen, biochemical, fluorescence Ex485/Em525. inhibition, %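 (about 10 µM by stock and volumes)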. AID 898, 2007. hit rate 0.16% among 140,000. YopH tyrosine phosphatase [Yersinia enterocolitica];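 active means inhibition of 50% or more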;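 further: controls were vehicle for no effect and minimum signal wells for full effect; inactives centre near -20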
Mtb bLac sens – beta-lactam sensitization of Mtb H37Rv, H37Rv; AID 434955, 2010; M. tuberculosis H37Rv growth with meropenem, percent inhibition; hits of this screen are not shown here; hit rate 0.27% among 330,000; inhibition, % at 25 µM;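 active means about 74% or more and at least 40 points above the plate without the antibiotic, then above 30% in a dose series; inconclusive means first-round hits that could not be retested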;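 further: growth measured after seven days incubation then overnight dye step; 0% = bacteria only wells and 100% = bacteria with antibiotic; twin plates without the antibiotic show which effects depend on it; some results filed as inactive read as strong as hits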
Mtb H37Rv – M. tuberculosis H37Rv growth inhibitors, H37Rv strain (AID 1626); M. tuberculosis H37Rv growth inhibition; higher % means a stronger effect; one-dose inhibition, % at 10 µM; IC50 in µM for titrated hits; hit rate 0.95% among 220,000;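 active means confirmed in a dose series; inconclusive means inhibition above 80% but not taken into the dose series; inactive means below 80% or under 30% at every dose of the series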;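 further: bacteria incubated seven days before Alamar blue readout; 0% = bacteria only wells and 100% = bacteria with antibiotic wells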
Arbovirus anti – antivirals against arbovirus infection, primary screen, cell-based, full library, 10K replicate subset | arbovirus infection cell-based antiviral screen | inhibition, % at 10 µM | hit rate 0.37% among 200,000;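 active means inhibition from about 30%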;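 further: bluetongue infection of BSR cells; cell survival read as ATP light after 72 h; 0% = infected wells without compound and 100% = uninfected wells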
Arbovirus anti repeat – further read-out of Arbovirus anti, marked with its call; inhibition, %; measured here: 10K subset replicate screen; many hits read low in the repeat;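 first of two repeat runs on a subset; 0% = infected and 100% = uninfected wells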
Starred values were filed as active, the others as inactive; ? = inconclusive; . = no result given.

SMILES	RecA intein inh	YopH inh	Mtb bLac sens	Mtb H37Rv	Arbovirus anti	others
CC(Cc1cccs1)NC(=S)Nc1ccc(F)cc1 (centres undefined)	-0.9	-28	-6	5%	0
COc1ccc(C(=O)NCc2nnc(SCC(=O)N3CCc4ccccc43)n2C2CCCCC2)cc1	-0.6	-25	2	.	-3
O=C(CNc1ccc2ccccc2c1)NNC1=NCCC1	1.3	-10	94	?	-22
CCCCn1c(=O)c(C(=O)N/N=C/c2ccc(F)cc2)c(O)c2ccccc21	-1.4	.	92	5%	13
N#C/C(=C/Nc1ccccc1F)S(=O)(=O)c1ccc(Cl)cc1	-6.3	.	-4	.	.
CCC(=O)N1CCc2cc(Br)cc(S(=O)(=O)CCC(=O)NCc3ccco3)c21	3.0	-10	0	-6%	3	Arbovirus anti repeat=2
O=[N+]([O-])c1cccc(-c2cn(-c3ccccc3)c(=S)[nH]2)c1	-0.2	.	3	-4%	4
CCn1nc(C)c(/C=N/NC(=O)Cn2cncn2)c1C	-0.2	.	-5	-6%	.
O=C(O)COc1ccc(Cl)cc1Cl	-1.0	.	0	.	.
O=C(Nc1ccc2c(c1)OCO2)c1cc2ncc(Br)cn2n1	4.0	9	.	62%	-10
Cc1ccc(-c2nnc(-c3ccccc3)o2)cc1Br	1.0	-9	18	0%	.
CCOC(=O)/C(C#N)=C/c1ccc(N2CCN(Cc3ccccc3)CC2)cc1	-5.7	-40	30	11%	2
O=C(CCc1nnc(Cc2cccc(C(F)(F)F)c2)o1)NC1CC1	2.0	.	-5	0%	3
COc1ccc(NS(=O)(=O)c2cccc(C(=O)NNC(=O)NCCCl)c2)cc1	-2.4	.	-10	-6%	-2
O=C(NCc1ccco1)C(NS(=O)(=O)c1cccc2nsnc12)c1ccccc1 (centres undefined)	-0.5	-34	-9	-1%	-14
Cc1c(C(=O)NCCSCc2ccc(F)cc2)cnn1-c1ccc(Cl)cc1	1.7	.	5	8%	.
CC(=O)c1ccc(NC(=O)CCc2nnc3ccc(NCc4ccco4)nn23)cc1	-3.8	.	-1	.	.
O=C(N/N=C1\CCCc2oc(C(=O)O)cc21)c1ccccc1	15	.	12	-11%	1
Cc1nn(Cc2cccc(C(=O)O)c2)c(C)c1[N+](=O)[O-]	-0.9	.	-7	4%	.
CCC(NC(=O)c1ccccc1NC(=O)c1ccccc1)C(=O)NNC(=O)CSc1nc2ccccc2o1 (centres undefined)	-3.7	-7	3	4%	4
COC(=O)C1=C(C)Nc2nc(-c3ccccc3)nn2C1c1ccc(C)o1 (centres undefined)	0.1	-2	0	-2%	-15	Arbovirus anti repeat=-9
Cc1nn(-c2ncc(C(F)(F)F)cc2Cl)c(=O)n1-c1ccc(F)cc1	6.6	.	-2	3%	4
Cc1ccnc(NC(=O)Cn2c(=O)oc3ccccc32)c1	0.1	.	?	.	.
CC(C)OCCCn1c(=NC(=O)c2cccs2)c(C#N)cc2c(=O)n3ccccc3nc21	-63	.	-12	5%	.
Cc1cccc(NC(=O)CSc2nnc(CSc3nc(C)cc(C)n3)o2)c1	0.8	-67	-13	-8%	5

In the list so far, two contain a nitro group on carbon.
SMILES	RecA intein inh	YopH inh	Mtb bLac sens	Mtb H37Rv	Arbovirus anti	others
O=[N+]([O-])c1cccc(-c2cn(-c3ccccc3)c(=S)[nH]2)c1	-0.2	.	3	-4%	4
Cc1nn(Cc2cccc(C(=O)O)c2)c(C)c1[N+](=O)[O-]	-0.9	.	-7	4%	.

Retrieved one by one from above, six records:
SMILES	RecA intein inh	YopH inh	Mtb bLac sens	Mtb H37Rv	Arbovirus anti	others
O=C(N/N=C1\CCCc2oc(C(=O)O)cc21)c1ccccc1	15	.	12	-11%	1
COc1ccc(NS(=O)(=O)c2cccc(C(=O)NNC(=O)NCCCl)c2)cc1	-2.4	.	-10	-6%	-2
CCC(NC(=O)c1ccccc1NC(=O)c1ccccc1)C(=O)NNC(=O)CSc1nc2ccccc2o1 (centres undefined)	-3.7	-7	3	4%	4
COc1ccc(C(=O)NCc2nnc(SCC(=O)N3CCc4ccccc43)n2C2CCCCC2)cc1	-0.6	-25	2	.	-3
CC(Cc1cccs1)NC(=S)Nc1ccc(F)cc1 (centres undefined)	-0.9	-28	-6	5%	0
CC(C)OCCCn1c(=NC(=O)c2cccs2)c(C#N)cc2c(=O)n3ccccc3nc21	-63	.	-12	5%	.

The main list resumes; the two compounds before the break are reprinted first.
SMILES	RecA intein inh	YopH inh	Mtb bLac sens	Mtb H37Rv	Arbovirus anti	others
CC(C)OCCCn1c(=NC(=O)c2cccs2)c(C#N)cc2c(=O)n3ccccc3nc21	-63	.	-12	5%	.
Cc1cccc(NC(=O)CSc2nnc(CSc3nc(C)cc(C)n3)o2)c1	0.8	-67	-13	-8%	5
CC1SC(C)C(=O)N(CC(=O)Nc2ccc3c(c2)OCO3)C1=O (centres undefined)	6.5	-15	27	-1%	-8
Cc1cc(=O)oc2cc(OCc3ccc(C(=O)N4CCN(c5ccccc5)CC4)cc3)ccc12	2.3	-26	37	1%	4
O=S(=O)(Nc1nc2ccccc2nc1Cl)c1ccc(Br)cc1	-9.2	.	11	2%	12
COc1ccc(CC(NC(C)=O)C(=O)NC2CCN(c3ncccc3[N+](=O)[O-])CC2)cc1 (centres undefined)	-2.1	.	1	3%	8
O=C(Cc1ccc(F)cc1)NC1CCCCCC1	-1.9	.	-2	.	.
CCn1c(-c2cc(-c3cc(C)ccc3C)nc3ccccc23)n[nH]c1=S	1.5	-19	2	4%	6
C[C@H](NC(=O)c1nc[nH]c1C(=O)NCC(=O)OC(C)(C)C)C(=O)OC(C)(C)C	-4.3	.	1	-6%	.
CCN(CC)c1ccc(C2Nc3cccc4cccc(c34)N2)c(O)c1	.	-7	86	?	.
COCCn1c(=NC(=O)c2ccc(S(=O)(=O)N3CCc4ccccc4C3)cc2)sc2cc(S(N)(=O)=O)ccc21	-1.7	-9	-9	0%	-11
COCCNC(=O)Cc1ccc(Br)cc1	2.3	5	-4	-6%	-4
Cc1ccc(S(=O)(=O)N2CCN(c3ccc([N+](=O)[O-])c4cccnc34)CC2)cc1	1.4	-13	9	8%	-2
Cc1cc(NNC(=O)c2ccccc2)nc(NNC(=O)c2ccccc2)n1	-0.7	.	-1	-11%	3
CCOc1cc(C(N)=O)cc(Br)c1OC	-2.5	-20	-7	-7%	4
CN(C)CCN(Cc1cc2cc3c(cc2[nH]c1=O)OCO3)C(=S)NCC1CCCO1 (centres undefined)	1.3	.	-12	-2%	4
CCCN1C2CCCC1CC(NC(=O)Nc1cccc(C(C)=O)c1)C2 (centres undefined)	2.2	-29	2	-10%	2
CCCCOc1ccc(-c2nnn(CC(=O)NCc3ccco3)n2)cc1	-0.9	8	4	1%	-6
FC(F)(F)c1cccc(NC(=S)NNC(=S)Nc2ccc(Cl)cc2)c1	1.4	.	98	?	.
O=C(CSc1nnnn1C1CCCC1)N1CCCc2ccccc21	-0.5	-1	1	-2%	8
CSCC[C@H](NC(=O)OC(C)(C)C)c1nnc(SCC(N)=O)o1	0.6	-24	-8	7%	4
Cc1csc(=O)n1CC(=O)OC(C)C(=O)Nc1cccc(Cl)c1 (centres undefined)	0.1	.	-3	.	.
COC(=O)c1cccc(NC(=O)c2ccc[n+]([O-])c2)c1	-0.9	.	-1	.	.
NCCCCC(NC(=O)C1CCCN1C(=O)C1CSSCC(N)C(=O)NC(Cc2ccc(O)cc2)C(=O)NC(Cc2ccccc2)C(=O)NC(CCC(N)=O)C(=O)NC(CC(N)=O)C(=O)N1)C(=O)NCC(N)=O (centres undefined)	.	-26	.	.	-2
CC(=O)Nc1ccc(S(=O)(=O)N2CCC(C(=O)NC3CCCC3)CC2)cc1	1.3	.	-9	.	.
CCCCSCCCNC(=O)c1ccc(CS(=O)(=O)c2ccc(OC)cc2)o1	-3.3	.	?	.	.
O=[N+]([O-])c1ccc(N2CCNCC2)cc1N1CCCCCC1	-0.5	.	-8	-2%	-11
Further structures.
SMILES	RecA intein inh	YopH inh	Mtb bLac sens	Mtb H37Rv	Arbovirus anti	others
Cc1cc2oc(=O)cc(CN3CCOCC3)c2cc1O	-2.2	.	-3	.	.
Cc1nc(N2CCN(c3ccccn3)CC2)c2c(C)c(C(=O)Nc3ccc(Cl)cc3)sc2n1	-0.9	.	45	.	.
CCn1cc(-c2n[nH]c(=S)n2-c2ccc(C)cc2Br)c(=O)c2ccc(C)nc21	-0.9	.	-4	-13%	.
C/C(=N\NC(=O)c1nnn(-c2nonc2N)c1CN(C)c1ccccc1)c1cccs1	1.6	.	0	.	.
CCN(c1ccccc1)c1nc2nonc2nc1NCCO	-0.6	.	-2	-4%	.
C/C(=N\NC(=O)C(=O)Nc1cccc(C(F)(F)F)c1)c1ccc(Cl)s1	0.0	-34	-11	0%	6
O=c1[nH]n(-c2ccc([N+](=O)[O-])cc2)c(=O)c2ccccc12	1.9	.	95	?	-13
CC(C)(C)NC(=O)c1ccc(C(=O)NC(C)(C)C)cc1	1.7	.	.	-1%	.
CCOC(=O)C1(Cc2ccc(OC)cc2)CCN(C(=O)CC2CCC(=O)N2)CC1 (centres undefined)	-1.6	.	4	-3%	4
Cc1ccc(NS(=O)(=O)c2cccc(C(=O)NNC(=O)NC3CCCCC3)c2)c(C)c1	9.1	-29	1	-1%	9
CCOC(=O)N1CCN(c2nc(-c3cccs3)cc(C(F)(F)F)n2)CC1	3.6	5	1	-8%	1
CCOc1ccc(/C=C2\CCC(C3CCCC3)C2=O)cc1 (centres undefined)	6.3	.	1	.	.
CC1(C(=O)Nc2nccs2)Cc2ccccc2C(=O)O1 (centres undefined)	0.6	-22	-5	-1%	6
CCOC(=O)C1=C(C)OC(N)=C(C#N)C1c1c(C)nn(-c2ccc(C)cc2)c1Cl (centres undefined)	-1.8	-47	.	.	5
COc1cccc(C(O)c2cnc(C(C)C)n2C)c1 (centres undefined)	16	.	-3	-4%	.
CCc1ccc(OCC(=O)OCC(=O)c2c(N)n(C)c(=O)n(C)c2=O)cc1	1.1	.	1	-1%	-1
CN(C)c1ccc(NC(=O)COC(=O)Cn2nnc3ccccc32)cc1	-3.7	13	6	-6%	-3
O=C(CSc1n[nH]c(-c2ccccc2Cl)n1)NCc1cccc(C(=O)O)c1	1.1	.	-4	-2%	7
CCO[C@@H]1OC(C(=O)N2CCN(Cc3ccc4c(c3)OCO4)CC2)=C[C@H](c2csc3ccccc23)[C@H]1CCCO	16	.	78	11%	-20
CCc1ccccc1N1C(=O)CC(Sc2nccc(C)n2)C1=O (centres undefined)	-1.8	.	0	.	.
COc1ccc(NC(=O)CN(C)C(=O)c2sc3cc(Cl)ccc3c2Cl)cc1	4.8	.	-18	.	.
CCOc1cc(/C=N\NC(=O)c2ccc(C)nc2)ccc1OC(=O)c1ccc(F)cc1	-0.1	.	-3	.	.
CCC(=O)NNC(=O)CCC(=O)Nc1cccc(Cl)c1C	-1.4	.	-4	7%	6
Brc1cccc(OCCN2CCCCC2)c1	-1.1	-21	-5	-2%	-7
COc1ccc(C(=O)Cn2ccsc2=NC(C)=O)cc1	-0.2	.	-7	4%	3
(continued)
SMILES	RecA intein inh	YopH inh	Mtb bLac sens	Mtb H37Rv	Arbovirus anti	others
CCCNC(=O)c1ccc(-c2nn(C)c(=O)c3ccccc23)cc1	-0.7	.	3	.	.
Cn1cc(C(=O)NC2CCCCCCC2)c(=O)c2cc(S(=O)(=O)N3CCCC3)ccc21	-1.9	-3	2	2%	-2
O=C(Nc1cccc(C(=O)N2CCOCC2)c1)c1ccccc1Br	-0.7	.	-6	.	.
CCCCOC(=O)Nc1ccc(N(C)C)cc1	3.2	-21	-5	-3%	0
COc1ccc(N2C(=O)C(Cl)=C(N3CCN(Cc4ccccc4)CC3)C2=O)cc1	69*	0	.	6%	7
CCOC(=O)c1ccc(N=Nc2c(C)[nH]n(-c3ccccc3)c2=O)cc1	4.2	.	56	.	.
CCOC(=O)/C=C1\SCC(=O)N1CCOc1cccc(Br)c1	-3.0	0	2	.	15	Arbovirus anti repeat=12
O=C1C(=O)N(CC2COc3ccccc3O2)c2ccccc21 (centres undefined)	6.0	.	5	.	.
CCc1nnc2n1N=C(c1ccc(Br)cc1)CS2	-0.2	.	-2	.	.
O=C1c2cccnc2C(=O)N1CO	-1.8	-65	-3	-3%	12
O=C(OCc1c(F)cccc1Cl)c1cccnc1Cl	1.3	.	0	.	.
c1ccc(CCNc2ncnc3c2cnn3-c2ccccc2)cc1	2.1	-21	66	7%	-12
CCCCNC(=O)CSc1nc(O)cc(=O)n1C1CCCC1	0.6	.	2	2%	1
Cc1ccc(-c2nn(-c3ccccc3)c3[nH]c(=O)c(CNCc4ccccc4)cc23)cc1	.	6	100	?	-36
COc1cc2nc(-c3cccs3)oc(=O)c2cc1OC	0.6	-15	91	78%	.

Not all compounds are listed; count on the stated rates, not on these rows.
